# HSP90 inh: blocks HSP90-mediated luciferase refolding in reticulocyte lysate | Rabbit reticulocyte lysate, luciferase refolding luminescence, 3 h | inhibition, % at 5.6 µM | 290,000 tested, 0.91% active | AID 1789;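 active = inhibition above the screen-wide mean plus 3 SD, computed separately per campaign, cut at about 16% in these data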;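 note: 0% = DMSO wells and 100% = 60 µM geldanamycin wells; inhibitors lower the luminescence because luciferase stays unfolded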
# HDAC3 inhib: blocks human histone deacetylase 3; 320,000 tested, 0.15% active; O15379; inhibition, % at 8.3 µM; recombinant HDAC3, fluorogenic peptide/trypsin coupled, fluorescence; in the data active = inhibition above about 26%, passing the limit was not always enough
# HSF1 inh: HSF1 inhibition | NIH3T3-HGL HSE-luciferase, MG132-induced, luminescence 8 h; stronger effect = lower value | activity change, negative = inhibition, % at 7.5 µM (by protocol) | 300,000 tested, 0.77% active | AID 2098;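 active = more than half of replicate wells show activity change below -50%, luminescence cut by over half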;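 note: luciferase reports HSF-1 transcriptional activity via heat shock element; 0% = median of DMSO wells and -100% = zero luminescence signal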
# PolyA inh: blocks polyadenylation in yeast reporter cells; 300,000 tested, 0.02% active; S. cerevisiae SKY197-pL101 polyadenylation reporter, beta-gal luminescence; efflux-impaired pdr1/pdr3 knockout yeast; score 100 = 6 SD above DMSO; calls only at 12 µM; AID 1875;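 active = lowest replicate activity score at least 50, where 100 means six control SD above control mean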;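 note: yeast exposed to compound for 9 h at 30 °C; higher score means more reporter readthrough which indicates perturbed polyadenylation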
# HSF-1 act: increases HSF-1 driven luciferase reporter signal; activation, % at 9 µM; 300,000 tested, 1.7% active; NIH3T3-HGL HSF-1 luciferase reporter, MG132, 8 h; 100% = twice DMSO control signal;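 active = mean replicate activation of at least 50% with a set share of replicates each reaching 50%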;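 note: 0% = median of the neutral control wells and 100% = twice that signal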
# Platelet DG rel: platelet dense granule release activity. human platelet-rich plasma, SFLLRN dense granule ATP release, luminescence. inhibition, %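 (compounds screened at 7.5 µM in platelet-rich plasma)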. 300,000 tested, 0.22% active;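 active = mean replicate score, as percent of positive control, at or above 50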
# GSK3A inh: blocks human GSK-3 alpha kinase; P49840; ADP-Glo luminescence, 60 min; inhibition, % at 10 µM; 320,000 tested, 0.1% active;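 in the data active = inhibition above about 50%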;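 note: GST-tagged GSK-3 alpha with peptide substrate and 25 µM ATP; 0% = DMSO neutral wells and 100% = GW8510 positive control wells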
# Target sequence (P49840 whole entry, looked up): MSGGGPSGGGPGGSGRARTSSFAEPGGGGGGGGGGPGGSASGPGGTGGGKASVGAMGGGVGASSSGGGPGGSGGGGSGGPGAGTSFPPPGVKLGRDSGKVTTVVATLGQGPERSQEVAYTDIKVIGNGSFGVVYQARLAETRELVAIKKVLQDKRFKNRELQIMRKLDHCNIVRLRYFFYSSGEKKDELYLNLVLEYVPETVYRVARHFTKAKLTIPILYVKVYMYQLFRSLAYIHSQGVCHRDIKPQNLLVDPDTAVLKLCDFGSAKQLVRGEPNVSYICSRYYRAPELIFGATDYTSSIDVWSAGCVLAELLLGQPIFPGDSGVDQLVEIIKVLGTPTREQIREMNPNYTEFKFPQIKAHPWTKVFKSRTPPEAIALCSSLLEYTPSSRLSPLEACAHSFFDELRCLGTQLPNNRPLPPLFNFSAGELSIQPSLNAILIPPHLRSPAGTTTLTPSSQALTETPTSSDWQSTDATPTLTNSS
# AI-2 QS mod: modulates the Vibrio harveyi AI-2 quorum sensing system; 300,000 tested, 0.4% active; Vibrio harveyi JMH597 AI-2 luminescence/OD600 ratio, 9 h; stronger effect = lower value; strain lacks LuxN and CqsS sensors; 0 = neutral-control median; activity change, % at 7.5 µM; in the data active = activity change below about -75%, passing the limit was not always enough;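 note: luminescence divided by OD600 gain over 9 h not by final OD600 alone; inactives centre near 13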
# GSK3B inh: inhibitors of human GSK3beta kinase. GST-GSK3beta kinase, ADP-Glo luminescence, 60 min; stronger effect = lower value. 300,000 tested, 0.038% active. activity score (negative = inhibition), % at 10 µM. AID 2097;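 active = more than half of replicate wells score below -50%, meaning over 50% inhibition versus plate controls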;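 note: 0% = median DMSO wells and -100% = median GW8510 positive control wells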
# Target sequence (P49841 whole entry, looked up): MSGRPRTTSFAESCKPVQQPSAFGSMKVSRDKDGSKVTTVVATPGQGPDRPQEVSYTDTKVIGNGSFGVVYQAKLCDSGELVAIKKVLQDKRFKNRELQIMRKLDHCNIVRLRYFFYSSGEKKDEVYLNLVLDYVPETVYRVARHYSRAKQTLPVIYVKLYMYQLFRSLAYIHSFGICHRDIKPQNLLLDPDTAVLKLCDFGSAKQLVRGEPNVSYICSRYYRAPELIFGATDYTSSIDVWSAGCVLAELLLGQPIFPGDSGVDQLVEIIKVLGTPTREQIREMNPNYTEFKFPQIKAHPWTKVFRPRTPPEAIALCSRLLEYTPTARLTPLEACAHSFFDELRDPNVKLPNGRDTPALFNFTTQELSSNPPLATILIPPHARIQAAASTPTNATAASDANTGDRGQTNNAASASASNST
#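 Assay system: GST-fused GSK3beta enzyme, cell-free / Medium: Tris pH 7.5 buffer with MgCl2, DTT, BSA, heparin / Also added: peptide substrate plus 25 µM ATP (final) / Compound: 10 µM single point / Timing: kinase reaction with compound 60 min at room temperature / Detection: ADP-Glo luminescence / Benchmarks: DMSO neutral wells and GW8510 at 20 µM as positive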
# * hit, by the source's call; i = inactive; nt = not tested or not shown.
# Values run as follows: HSP90 inh | HDAC3 inhib | HSF1 inh | PolyA inh | HSF-1 act | Platelet DG rel | GSK3A inh | AI-2 QS mod | GSK3B inh
- COc1cccc(CNc2nc3ccc(C)cc3n3cnnc23)c1
    -3 | -10 | 3 | i | 16 | 1 | -4 | 10 | 2
- Cc1ccc(S(=O)(=O)N2CCCC(C(=O)NCc3ccccn3)C2)cc1 (centres undefined)
    -5 | -8 | 7 | i | 35 | -3 | -3 | 21 | 4
- CC(=O)Nc1ccc(NC(=O)c2oc3cc(C)c(C)cc3c2C)cc1
    -4 | 2 | nt | nt | nt | nt | 3 | nt | nt
- Cc1cc(C(C)(C)C)c(OC(=O)[C@@H]2OC(c3ccccc3)=C[C@H]2c2ccccc2)c(C(C)(C)C)c1
    nt | -3 | nt | nt | nt | nt | -2 | nt | nt
- COc1ccc(-n2c3c(c(=O)[nH]c2=O)C(NC(=O)c2ccncc2)(C(F)(F)F)C(=O)N3)cc1 (centres undefined)
    -3 | 6 | -1 | i | 7 | 0 | -3 | 12 | 0
- COC(=O)c1cccc(S(=O)(=O)N2CCC(NC(=O)Nc3cccc(F)c3)CC2)c1
    -1 | 13 | 0 | i | 1 | -5 | 2 | 29 | 4
- CNC(=S)N/N=C/c1c(C)c(C(=O)c2ccc(F)cc2)n2ccccc12
    2 | -9 | -4 | i | 18 | 5 | 0 | 8 | 1
- CCc1c(C)sc(NC(=O)c2cccs2)c1C(=O)OC(C)C
    -5 | 7 | 0 | i | 14 | 11 | -2 | 14 | 1
- COc1ccc2nc(N3CCCC(O)C3)c(C#N)cc2c1 (centres undefined)
    6 | 2 | 24 | i | 24 | nt | 4 | 36 | -9
- CC1=CC(C)(C)Nc2ccc(OC(=O)C(C)N3C(=O)c4ccccc4C3=O)cc21 (centres undefined)
    5 | 10 | -7 | i | -1 | -3 | -2 | 9 | 0
- O=C(Nc1ccc(S(=O)(=O)N2CCc3ccccc3C2)cc1)c1ccccc1
    -4 | 1 | 24 | i | 43 | -10 | -3 | 65 | 0
- COC(=O)c1cccc(S(=O)(=O)N2CCC(NC(=O)NC34CC5CC(CC(C5)C3)C4)CC2)c1
    -1 | -6 | 0 | i | 0 | 10 | -4 | 19 | 4
- O=C(Nc1ncc2c(n1)-c1ccccc1CC2)c1cccc(Cl)c1
    2 | 3 | -1 | i | 19 | -8 | -3 | 11 | 3
- COc1ccc(S(=O)(=O)N2CCC[C@H]2C(=O)NC2=NCCS2)cc1
    2 | 1 | -4 | i | 4 | -4 | 17 | 16 | 2
- CCO/C=C1/C(=O)N(C)C(=O)c2cc(OC)ccc21
    -2 | -9 | -11 | i | -3 | 9 | 0 | 12 | 3
- Nc1nc(-c2ccccc2)nc(-c2ccccc2O)n1
    1 | 11 | 11 | i | 41 | -2 | 10 | -5 | 0
- CCOC(=O)NC1(NCc2ccccc2)Oc2ccccc2O1
    1 | 3 | -2 | i | 16 | 6 | -4 | -4 | 1
- CCOC(=O)Nc1cccc(NC(=O)c2cc(OC)cc(OC)c2)c1
    -2 | 5 | 0 | i | 7 | 11 | 1 | 23 | -1
- CCOC(CNc1ncnc2sc(-c3ccccc3)cc12)OCC
    -6 | -2 | 5 | i | 26 | 2 | 1 | 11 | -2
- Cn1nc(C(=O)OCC(=O)N2CCc3ccccc32)c2ccccc2c1=O
    -3 | -2 | 7 | i | 5 | -5 | 1 | 44 | 3
- COc1ccc(N2CC(C(=O)Nc3nc4ccc(OC)cc4s3)CC2=O)cc1 (centres undefined)
    6 | 3 | -2 | i | 9 | 6 | -1 | 10 | -3
- CCCCNC(=O)C1CCN(S(=O)(=O)c2cnc[nH]2)CC1
    -2 | -2 | 7 | i | 10 | -1 | 0 | 17 | 1
- CC(C)CCn1nnnc1CN1CCN(c2ccccc2)CC1
    -2 | -6 | 11 | i | 14 | 7 | 2 | 4 | 3
- CCc1nc(C)cn1S(=O)(=O)c1ccc([N+](=O)[O-])cc1
    2 | -5 | -5 | i | 6 | 1 | 0 | 26 | -4
- O=C(Nc1ccc2c(c1)OCCO2)c1cc(-c2ccccc2)nc2ccccc12
    3 | -13 | 9 | i | -5 | 2 | 0 | -4 | -3
- Cc1cc2n(n1)C(c1ccsc1)Nc1ccccc1-2 (centres undefined)
    2 | -8 | -3 | i | -5 | -4 | -3 | 3 | 0
- Cc1cccc(CCNc2nc3ccccc3n3nnnc23)c1
    2 | 0 | 0 | i | 19 | 0 | -8 | 6 | 1
- Cc1c(N=C2NC(=O)C(CC(=O)Nc3ccc(Cl)cc3)S2)c(=O)n(-c2ccccc2)n1C (centres undefined)
    1 | -2 | 17 | i | 42 | -13 | -1 | 34 | 0
- CC12CCC(=O)N1C(C(=O)O)Cc1c2[nH]c2ccccc12 (centres undefined)
    1 | 1 | -33 | i | -48 | -4 | 1 | 26 | 3
- CC(=O)Nc1cccc(-c2nc3ccccc3[nH]2)c1
    -5 | -4 | 6 | i | 26 | 2 | -1 | 7 | 0
- CCOc1ccc(CCNc2nc3ccc(C)cc3n3cnnc23)cc1OCC
    2 | 3 | -9 | i | -9 | -6 | -3 | 6 | -3
- COc1ccc(C2C(C(=O)OCC3CCCO3)=C(C)NC3=C2C(=O)CC(c2ccco2)C3)cc1O (centres undefined)
    -5 | 4 | 2 | i | -3 | 15 | -1 | 5 | 0
- CN(Cc1ccccc1)C(=O)c1ccc2c(c1)OCCO2
    -1 | 5 | 1 | i | 1 | 1 | 1 | 1 | -7
- Clc1cccc(CSc2nccn2-c2ccccc2)c1
    -3 | -6 | -1 | i | 4 | 1 | 2 | 6 | 3
- COc1ccc2cc(CO)c3cc(OC)c(OC)cc3c2c1
    nt | -2 | nt | nt | nt | nt | 6 | nt | nt
- CSc1n[nH]c(NCc2cccs2)n1
    -2 | -2 | -4 | i | 0 | -5 | 0 | 19 | -3
- O=C(Nc1nnc(-c2ccc3c(c2)CCCC3)o1)C1COc2ccccc2O1 (centres undefined)
    0 | -3 | 3 | i | 7 | -18 | -2 | 34 | -3
- COc1ccc(-c2cc(-c3n[nH]c(=S)n3-c3ccccc3OC)[nH]n2)cc1
    1 | 12 | -3 | i | 20 | -6 | 0 | 11 | 1
- CCC(=O)N(CCC(Cc1ccccc1)c1ccco1)Cc1ccco1 (centres undefined)
    1 | -5 | 8 | i | 3 | 0 | 0 | 33 | 1
- CCC(C)(C)n1nnnc1C(c1cccs1)N1CCc2ccccc21 (centres undefined)
    6 | 1 | 4 | i | 48 | 2 | -2 | 5 | 1
- O=C(/C=C/c1ccc(Cl)cc1Cl)NCc1ccco1
    -2 | 5 | 19 | i | 27 | -14 | 2 | -9 | -1
- CCOc1ccc(C=NC23CN4CN(CN(C4)C2)C3)cc1
    2 | 0 | -2 | i | 11 | -2 | nt | 27 | 1
- O=C(NCCc1ccccc1)Nc1ccc(Cl)cc1
    2 | 1 | 4 | i | 11 | -8 | 0 | -8 | -7
- COc1ccc(/C(O)=C2\C(=O)C(=O)N(c3cc(C)on3)C2c2ccc(OC)c(OC)c2)cc1OC (centres undefined)
    1 | 11 | 2 | i | 37 | 6 | 1 | 29 | 0
- COC(=O)c1cc2ccsc2n1Cc1cc(=O)n2ccccc2n1
    3 | -1 | 1 | i | -7 | -9 | -2 | 15 | 2

# Five entries from above, ordered by their value in GSK3B inh, smallest number first.
SMILES	HSP90 inh	HDAC3 inhib	HSF1 inh	PolyA inh	HSF-1 act	Platelet DG rel	GSK3A inh	AI-2 QS mod	GSK3B inh
CCOc1ccc(CCNc2nc3ccc(C)cc3n3cnnc23)cc1OCC	2	3	-9	i	-9	-6	-3	6	-3
CC1=CC(C)(C)Nc2ccc(OC(=O)C(C)N3C(=O)c4ccccc4C3=O)cc21 (centres undefined)	5	10	-7	i	-1	-3	-2	9	0
CCC(=O)N(CCC(Cc1ccccc1)c1ccco1)Cc1ccco1 (centres undefined)	1	-5	8	i	3	0	0	33	1
COc1cccc(CNc2nc3ccc(C)cc3n3cnnc23)c1	-3	-10	3	i	16	1	-4	10	2
O=C(Nc1ncc2c(n1)-c1ccccc1CC2)c1cccc(Cl)c1	2	3	-1	i	19	-8	-3	11	3

# More entries:
# Values run as follows: HSP90 inh | HDAC3 inhib | HSF1 inh | PolyA inh | HSF-1 act | Platelet DG rel | GSK3A inh | AI-2 QS mod | GSK3B inh
- CN=C(NC#N)SCC(=O)c1ccc(Cl)cc1Cl
    3 | -6 | -12 | i | 9 | -11 | 77* | -15 | -71*
- Cc1c(/C=N/NC(N)=O)c2ccccn2c1C(=O)c1ccncc1
    0 | 4 | -4 | i | 4 | 13 | 0 | 35 | 4
- CC(=O)N1CCN(c2nc(C)nc3sc4c(c23)CCC(C)C4)CC1 (centres undefined)
    0 | 7 | -10 | i | 4 | 0 | 6 | 12 | -5
- Cc1nc2cc(F)ccc2n1C1CCN(C(=O)c2ccc(F)cc2F)CC1
    -3 | -2 | 14 | nt | 32 | -1 | -3 | 22 | -3
- O=S1(=O)N=C(Nc2nc3c(s2)CCCC3)c2ccccc21
    3 | -6 | nt | nt | nt | nt | -4 | nt | nt
- C=CCN=C(NC#N)SCC(=O)c1cccc(OC)c1
    -2 | 4 | 1 | i | 40 | -8 | 82* | -14 | -69*
- Cc1c(C=O)c2ccccn2c1C(=O)c1cccc([N+](=O)[O-])c1
    -3 | 12 | -6 | i | 3 | -2 | -2 | 14 | 3
- Cc1cc(C)c2nc(N3CCN(C)CC3)c(C#N)cc2c1
    -4 | -7 | -5 | i | 13 | 2 | -4 | 9 | 4
- Cc1ccc2nc(NC(=O)C3CCCN(S(=O)(=O)c4cccc5nsnc45)C3)sc2c1 (centres undefined)
    9 | -6 | 12 | i | 25 | 1 | 4 | 13 | 2
- CCOc1ccccc1Nc1nc2ccc(C)cc2n2cnnc12
    1 | nt | -4 | i | 3 | -5 | nt | 4 | 3
- COc1ccc(CCC(=O)N/N=C\c2cccs2)cc1
    2 | 3 | -5 | i | 8 | 7 | 1 | 8 | 3
- COCCCNC(=S)NNC(=O)C1CC1c1ccc(C(C)(C)C)cc1 (centres undefined)
    5 | nt | 24 | i | 44 | -3 | nt | -5 | 1
- Cc1ccc(NC(=O)C2CC(c3ccc(F)cc3)=NO2)cc1 (centres undefined)
    -3 | -3 | -9 | i | 3 | 4 | -4 | 19 | 0
- COc1ccc(-c2nnc(S/C(=C/c3ccc(Cl)cc3)C(=O)O)o2)cc1
    -1 | 0 | -2 | i | -11 | -2 | -2 | 11 | 5
- CCOc1ccc(-c2cc(C(=O)O)c3ccccc3n2)c(OCC)c1
    4 | -8 | -6 | i | -5 | 3 | -1 | 10 | -2
- COc1ccc(C(=O)N2CCC(n3c(C)nc4cc(F)ccc43)CC2)cc1OC
    -1 | -3 | 2 | i | 7 | 3 | 3 | -5 | 1
- Cc1cccc(CCNc2nc3ccc(C)cc3n3cnnc23)c1
    16 | 1 | -40 | i | -44 | -10 | -1 | 8 | 2

# Shown with tabs: part of the list above.
canonical_smiles	HSP90 inh	HDAC3 inhib	HSF1 inh	PolyA inh	HSF-1 act	Platelet DG rel	GSK3A inh	AI-2 QS mod	GSK3B inh
Cc1cc(C)c2nc(N3CCN(C)CC3)c(C#N)cc2c1	-4	-7	-5	i	13	2	-4	9	4
Cc1ccc2nc(NC(=O)C3CCCN(S(=O)(=O)c4cccc5nsnc45)C3)sc2c1 (centres undefined)	9	-6	12	i	25	1	4	13	2
CCOc1ccccc1Nc1nc2ccc(C)cc2n2cnnc12	1	nt	-4	i	3	-5	nt	4	3

# Source: PubChem (several laboratories)

# This is a subset; count on the stated rates, not on these rows.
